Autofluor counter: counter-screen for toxin protease inhibitors: compound fluorescence | AID 624483 | fluorescence intensity (concentration not given with the values) | compound autofluorescence counterscreen, microsphere flow cytometry; stronger effect = higher value | 360,000 compounds, 3.1% hits;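 active = at least 3 SD above the mean of all compounds, about 16000 in these data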;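 note: 100 nL of 1 mM stock went into each well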
Sa ugtP lethal: growth inhibition of S. aureus ugtP deletion strain | S. aureus RN4220 ugtP deletion, OD600 growth, 16 h; some inactives read as strong as hits | growth inhibition, % (concentration not given with the values) | 330,000 compounds, 0.54% hits | AID 1259309;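 active = z-score under -3 and OD600 up to 0.15 on both plates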;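 note: plate controls were untreated wells for no effect and antibiotic for full effect; wells of about 80 µL received 100 nL stock; the first replicate is given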
Mtb hypoxia inh: reduces hypoxia-regulated biosensor signal in M. tuberculosis | fluorescence inhibition, % (concentration not given with the values) | 300,000 compounds, 0.1% hits | M. tuberculosis hypoxia-regulated fluorescent reporter, fluorescence | AID 1159583;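 active = 35 to 45% if threefold the growth effect, above 45% if 1.5-fold the growth effect; inactive = the rest, general growth blockers included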;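 note: wells of about 50 µL received 100 nL stock; 0% = vehicle wells and 100% = reference inhibitor wells; whole bacteria with a GFP reporter of the hypoxia response; strong numbers were not always called active; many hits fall short of the cut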
PrP 5UTR inh: suppresses PrP 5' UTR mRNA reporter expression. 340,000 compounds, 0.35% hits. cell-based PrP 5' UTR mRNA reporter, plate reader. inhibition, % (test concentration not listed);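 active = every replicate at 50% or more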;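 note: 0 = median of the neutral control wells; tested in H4 reporter cells; numbers are from one replicate; inactives centre near -14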
Sa RN4220 lethal: kills Staphylococcus aureus RN4220. S. aureus RN4220 growth, OD600, 16 h. 330,000 compounds, 0.33% hits. inhibition, % (concentration not given with the values);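 active = z-score of -3 or lower and OD600 up to 0.18 on both plates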;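 note: plate controls were untreated cells for no effect and reference antibiotic for full effect; stock transfer was 100 nL into about 80 µL; one replicate is shown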
BJeLR viability: BJeLR cell viability loss; BJeLR (HRASV12) viability, CellTiter-Glo ATP luminescence, 48 h; reference of the scale not given here; inhibition, % (concentration not given with the values); 300,000 compounds, 0.17% hits;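 active = replicate mean above 50%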;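 note: 50 nL library stock added to about 25 µL; numbers are from one replicate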
Mtb hypoxia inh growth: recorded beside Mtb hypoxia inh, whose call it bears; growth inhibition, %; measured here: M. tuberculosis growth (absorbance);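 0% = vehicle and 100% = reference antibiotic; read after six days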
* marks the source's active call; other numbers are inactive results; nt = no result given.

SMILES	Autofluor counter	Sa ugtP lethal	Mtb hypoxia inh	Mtb hypoxia inh growth	PrP 5UTR inh	Sa RN4220 lethal	BJeLR viability
CN(CCOc1ccc(Cl)cc1)CC(=O)Nc1ccc(OC(F)(F)F)cc1	3357	-11	2	-3	-24	-12	-6
Cc1cccc(N=Nc2cn[nH]c2-c2ccco2)c1	3939	-4	-8	-1	-10	2.6	5
O=S(=O)(Nc1ccc(Cl)c(C(F)(F)F)c1)c1cnc[nH]1	3662	0	nt	nt	-1	3.6	1
COc1ccc(CNC(=S)Nc2cccc(F)c2)cc1	3880	2	14	5	-17	0.8	-4
CCOc1ccc(S(=O)(=O)N2CCC(C(=O)NC3CC3)CC2)cc1Cl	5486	3	18	4	-21	1.7	6
Cc1ccc(S(=O)(=O)N2CCN(C(=O)CCOc3ccccc3C)CC2)cc1C	5546	-2	6	-6	-5	5.9	nt
CCOc1ccccc1N1CC(C(=O)N2CCN(Cc3ccc(C#N)cc3)CC2)CC1=O (stereo not drawn)	3985	2	2	9	-3	1.6	nt
O=C(c1ccccc1F)N(NC(=O)C(O)(c1ccccc1)c1ccccc1)c1ccccc1	1971	7	-4	2	-17	6.9	3
Cc1cc(C(=O)NN=Cc2sc(N3CCOCC3)nc2-c2ccccc2)c(C)o1	nt	95*	-12	1	nt	94*	nt
COc1cc(/C=C(/NC(C)=O)C(=O)O)cc(Cl)c1OCc1ccc(Br)cc1	3904	3	0	-8	1	0.5	-6
Cc1cc(C(=O)Nc2ccccc2Cc2ccccc2)no1	5326	9	11	10	-32	5.1	1
O=C1CN(C(=O)COC(=O)c2ccc(C(F)(F)F)cc2)c2ccccc2N1	3685	1	9	12	-14	1.6	nt
O=C(Cn1ncc(Cl)c(Cl)c1=O)NC1CCCCC1	5920	2	12	-1	-20	3.0	nt
O=C(NCc1cccs1)c1cnc(Cl)c(Cl)c1	4661	-1	nt	nt	-11	4.0	-11
O=C(Nc1ccccc1N1CCCCC1)C1CCN(S(=O)(=O)c2cccc(C(F)(F)F)c2)CC1	6798	-10	7	3	-38	-1.6	-7
O=C(CNC(=O)C1CCCCC1)OCn1nnc2ccccc2c1=O	4168	-3	-2	7	-5	-1.3	2
O=C(CCC(=O)Nc1ccc(Cl)cc1)N/N=C/c1ccc2c(c1)OCO2	5582	nt	nt	nt	-1	nt	-2
Cc1[nH]nc(N2CCCCC2)c1[N+](=O)[O-]	4460	-2	0	4	-6	9.6	-14
C/C(CC(=O)NC1CCCCC1)=N\NC(=O)c1ccccc1C	3689	nt	nt	nt	-3	nt	-13
CCCn1nc(NC(=O)c2cccs2)c2cc3cc(OC)ccc3nc21	3329	-10	-7	3	-24	-1.2	-9
Cc1ccc2nsnc2c1NC(=O)CCc1ccccc1	2166	1	7	9	-10	4.2	-11
Cc1cnc(C(=O)OCC(=O)Nc2ccc3c(c2)OCCO3)cn1	4212	-4	6	3	-7	-0.4	nt
O=C1N(Cc2cccc(Cl)c2)C[C@@H]2C[C@@H](c3ccsc3)N3CCC[C@@]123	9342	1	-3	2	-8	1.1	11
CC(=O)NC(C1C(=O)CC(C)(C)CC1=O)(C(F)(F)F)C(F)(F)F	6431	4	10	7	-24	2.7	-2
COc1ccc(OC2C=CC(c3ccccc3)OC2COC(=O)CCC(C)=NOCC(O)COCc2ccco2)cc1 (stereo not drawn)	nt	-14	12	6	nt	7.6	nt
O=C(NCc1ccco1)c1cc2n(n1)C(C(F)(F)F)CC(c1ccc(F)cc1)N2 (stereo not drawn)	4205	0	-1	16	4	1.1	-3
COc1ccc(S(=O)(=O)n2oc(=O)cc2-c2ccccc2)cc1OC	2918	-1	2	4	-14	1.0	21
NC(=O)C1(c2ccccc2)CCCN1C(=O)c1ccc(Br)cc1 (stereo not drawn)	3753	8	-7	0	-68	5.3	nt
Cc1ccc(/C=C2\CCC(C3CCCC3)C2=O)cc1 (stereo not drawn)	11285	nt	nt	nt	-50	nt	-8
O=C1N=C(N2CCCC2)SC1=Cc1cccc(Br)c1	nt	-11	-4	6	nt	13	nt
Cc1ccccc1OCc1nc2ccccc2c(=O)n1/N=C/c1cccc([N+](=O)[O-])c1	2852	nt	nt	nt	-16	nt	-32
COc1cccc(-c2nc(CS(=O)(=O)CC(=O)NCCc3ccc(C)cc3)c(C)o2)c1	5787	-5	-6	2	-4	-0.3	2
Cc1nn(-c2ccccc2)c(NC(=O)c2cccs2)c(-c2ccc(Cl)cc2)c1=O	2026	4	4	1	-4	0.0	15
Cc1nc2cc(NCc3cccs3)ccc2n1C	4331	1	9	3	-67	3.7	2
S=c1[nH]nc(Cc2cccc3ccccc23)n1-c1ccccc1	2420	4	10	6	-4	7.0	3
CCOC(=O)c1ccccc1NC(=O)C1CC(=O)N(C2CCCCC2)C1 (stereo not drawn)	5592	1	9	6	-6	2.2	-1
CCCCCn1nc(C)c(/C=N/NC(=O)c2ccoc2C)c1C	6014	nt	nt	nt	-41	nt	-3
N#CC1(c2ccccc2)CCCN1C(=O)c1ccccc1Br (stereo not drawn)	2907	-5	nt	nt	3	0.1	-1
COc1ccccc1NC(=O)CS(=O)(=O)c1cn(CC(=O)N(C(C)C)C(C)C)c2ccccc12	6094	-2	5	0	-14	0.9	3
Cc1cc(C(=O)OCn2nnc3ccccc3c2=O)c(C)o1	3187	16	9	1	6	1.2	-10
CC(C)CC(OC(=O)c1ccc(Cl)nc1)C(=O)NC1CCCC1 (stereo not drawn)	3735	-3	-8	7	-16	0.7	1
O=C(CSc1ccc([N+](=O)[O-])cc1)Nc1cccc(S(=O)(=O)N2CCOCC2)c1	9046	-6	9	4	-25	14	nt
CCOc1cc(CNc2ccccc2)cc(Br)c1OCc1ccc(F)cc1	3239	39	4	3	-20	-9.0	1
Cn1c(=O)n(C)c2cc(S(=O)(=O)NCCc3ccccc3)ccc21	3140	-4	25	9	-15	-9.3	22
COc1cc(Cl)c(CN2CCCC(CO)(Cc3ccccc3F)C2)cc1OC (stereo not drawn)	3646	12	-4	-10	-1	3.6	-12
Cc1ccc(Cn2c(=O)c3c(nc4n3CCN4Cc3ccco3)n(C)c2=O)cc1	2774	7	8	10	-4	0.8	-3
O=C(OCC(=O)N1CCCCC1)c1cc2ccccc2cc1O	2364	2	nt	nt	-7	5.2	-2
CCCCCCOC(=O)C1=C(C)NC(=O)NC1c1ccc(O)cc1 (stereo not drawn)	4702	47	nt	nt	-10	29	1

Reprinted at random: 3 records from the list
SMILES	Autofluor counter	Sa ugtP lethal	Mtb hypoxia inh	Mtb hypoxia inh growth	PrP 5UTR inh	Sa RN4220 lethal	BJeLR viability
COc1ccccc1NC(=O)CS(=O)(=O)c1cn(CC(=O)N(C(C)C)C(C)C)c2ccccc12	6094	-2	5	0	-14	0.9	3
COc1cc(Cl)c(CN2CCCC(CO)(Cc3ccccc3F)C2)cc1OC (stereo not drawn)	3646	12	-4	-10	-1	3.6	-12
O=C(CSc1ccc([N+](=O)[O-])cc1)Nc1cccc(S(=O)(=O)N2CCOCC2)c1	9046	-6	9	4	-25	14	nt

Other entries follow.
SMILES	Autofluor counter	Sa ugtP lethal	Mtb hypoxia inh	Mtb hypoxia inh growth	PrP 5UTR inh	Sa RN4220 lethal	BJeLR viability
CS(=O)(=O)N1CCC(Oc2ccccc2C(=O)N2CCNC(=O)C2)CC1	4481	3	-9	-6	7	-2.5	4
CNC(=O)C1CCN(S(=O)(=O)c2c(C)noc2/C=C/c2cccc(C)c2)CC1	5145	10	12	13	-20	7.3	6
N#Cc1ccc(-n2nnc3ccccc3c2=O)c([N+](=O)[O-])c1	3132	6	4	-3	2	4.1	-16
O=C(CSc1nc(-c2ccco2)cc(C(F)(F)F)n1)NC1CCCC1	4643	nt	nt	nt	-12	nt	-6
O=C(O)CC(NC(=O)Cc1ccccc1)c1cc([N+](=O)[O-])ccc1Cl (stereo not drawn)	4241	-2	-4	9	-13	-0.4	-2
O=C(NCCc1ccc(Cl)cc1Cl)c1cccnc1	5578	-1	1	-3	-3	0.7	17
O=C(NC1CCCC1)C1CCCN(S(=O)(=O)c2cccc3cccnc23)C1 (stereo not drawn)	4354	1	nt	nt	12	2.7	-1
C/C(=N\Nc1nc(C(C)(C)C)cs1)c1ccc(O)cc1	2932	nt	nt	nt	-47	nt	-5
CCCCC(=O)NC(c1ccccc1Cl)c1c(O)ccc2ccccc12 (stereo not drawn)	8886	2	4	-6	-21	0.1	-20
CC(=O)Nc1ccc(SCCC2CCCCN2C)cc1 (stereo not drawn)	4487	-1	1	1	-3	-0.1	-10
O=C(NNc1cc(Cl)ccc1Cl)c1c(F)cccc1Cl	3765	8	14	2	-33	13	1
COc1ccc(N2CCN(CC(=O)N3N=CCC3c3ccccc3)CC2)cc1 (stereo not drawn)	2010	8	1	-2	-13	-1.5	-4
CCc1cc2ccc(OC)cc2nc1SCC(=O)NNC(=O)c1ccco1	4854	2	3	2	-17	1.2	-2
COc1ccc(CNC(=O)CN2c3ccccc3S(=O)(=O)c3ccccc32)cc1	5330	-5	-10	4	5	-1.1	4
C/C(Cc1ccccc1)=N\NC(=O)CNC(=O)Cc1ccc(Cl)cc1	3528	nt	nt	nt	-19	nt	-8
CCn1c(CNC(=O)c2ccc3c(c2)OCO3)nnc1SCC(=O)Nc1ccccc1F	6156	1	-7	-10	-13	2.5	-7
COc1ccc(OCCCn2ccnc2)cc1	4022	6	7	-4	-22	6.3	8
O=C1NC2(CCCCC2)C(=O)N1c1cccc(Cl)c1	3423	-5	2	7	-5	2.2	-2
Cc1cc(C)n2nc(SCC(=O)c3cc(C)n(CC4CCCO4)c3C)nc2n1 (stereo not drawn)	4538	7	0	-3	-7	-3.4	-23
Cc1c(N2C(=O)/C(=C/c3ccc(N(C)C)cc3)N(C)C2=S)c(=O)n(-c2ccccc2)n1C	5014	3	40*	7.0*	-12	2.9	nt
CC(=O)Nc1ccc(C(C)=NNC(=O)C2CC2c2ccccc2)cc1 (stereo not drawn)	nt	1	3	0	nt	6.3	nt

Compounds shown so far that have fluorine:
SMILES	Autofluor counter	Sa ugtP lethal	Mtb hypoxia inh	Mtb hypoxia inh growth	PrP 5UTR inh	Sa RN4220 lethal	BJeLR viability
CN(CCOc1ccc(Cl)cc1)CC(=O)Nc1ccc(OC(F)(F)F)cc1	3357	-11	2	-3	-24	-12	-6
O=S(=O)(Nc1ccc(Cl)c(C(F)(F)F)c1)c1cnc[nH]1	3662	0	nt	nt	-1	3.6	1
COc1ccc(CNC(=S)Nc2cccc(F)c2)cc1	3880	2	14	5	-17	0.8	-4
O=C(c1ccccc1F)N(NC(=O)C(O)(c1ccccc1)c1ccccc1)c1ccccc1	1971	7	-4	2	-17	6.9	3
O=C1CN(C(=O)COC(=O)c2ccc(C(F)(F)F)cc2)c2ccccc2N1	3685	1	9	12	-14	1.6	nt
O=C(Nc1ccccc1N1CCCCC1)C1CCN(S(=O)(=O)c2cccc(C(F)(F)F)c2)CC1	6798	-10	7	3	-38	-1.6	-7
CC(=O)NC(C1C(=O)CC(C)(C)CC1=O)(C(F)(F)F)C(F)(F)F	6431	4	10	7	-24	2.7	-2
O=C(NCc1ccco1)c1cc2n(n1)C(C(F)(F)F)CC(c1ccc(F)cc1)N2 (stereo not drawn)	4205	0	-1	16	4	1.1	-3
CCOc1cc(CNc2ccccc2)cc(Br)c1OCc1ccc(F)cc1	3239	39	4	3	-20	-9.0	1
COc1cc(Cl)c(CN2CCCC(CO)(Cc3ccccc3F)C2)cc1OC (stereo not drawn)	3646	12	-4	-10	-1	3.6	-12
O=C(CSc1nc(-c2ccco2)cc(C(F)(F)F)n1)NC1CCCC1	4643	nt	nt	nt	-12	nt	-6
O=C(NNc1cc(Cl)ccc1Cl)c1c(F)cccc1Cl	3765	8	14	2	-33	13	1
CCn1c(CNC(=O)c2ccc3c(c2)OCO3)nnc1SCC(=O)Nc1ccccc1F	6156	1	-7	-10	-13	2.5	-7
